Compound activity as filed in PubChem BioAssay.
Yeast UUG start = modulators of yeast start codon fidelity, primary screen, whole organism, S. cerevisiae, single point, plate reader | S. cerevisiae UUG-firefly luciferase reporter, luminescence/redox ratio | activity score, % at 18.7 µM | 350,000 compounds, 0.13% hits | AID 602363, 2012;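 active = replicate mean at a twofold rise or more, about +100% in these data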;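 also: firefly luciferase made from a UUG start codon reports start codon fidelity; reporter light over untreated wells divided by growth signal over untreated wells; some hits fall short of that in this replicate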
CSC inhib = cancer stem cell viability inhibitors, primary screen, luminescence. 300,000 compounds, 1.1% hits. AID 2717, 2010. inhibition, % at 7.5 µM. cancer stem cell-like cells viability;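 active = mean at 75% or more and at least half the replicates too; tested in HMLE shEcad cells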;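 also: 0% = median of negative and 100% = median of positive control wells; the first replicate is given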
MT1-MMP act inh = blockers of MT1-MMP proenzyme processing, primary screen, HT1080 RFP-PRO-GFP cells, GFP/RFP fluorescence; GFP/RFP ratio fluorescence, overnight; percent of plate control window, DMSO zero; GFP/RFP ratio change, % at 20 µM; 360,000 compounds, 0.061% hits; AID 651647, 2012;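 active = GFP/RFP ratio change of at least 30% with cell ATP level not reduced by more than half and red fluorescence within 50% of control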; also: strong numbers were not always called active
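Assay system: HT1080 RFP-PRO-GFP cells | Dosing: 20 µM single dose, 1% DMSO | Incubation: Cells overnight before dosing, compound overnight, 37 °C, 5% CO2 | Evaluation: GFP/RFP fluorescence ratio | Control set: DMSO-only wells and HT1080 RFP-L50D-GFP cell wells as references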
PABP polyA inh = PABP poly(A) RNA binding inhibitors, primary screen, biochemical, fluorescence polarization, uHTS. AID 2014, 2009. Polyadenylate-binding protein 1 (Homo sapiens), P11940. 290,000 compounds, 1% hits. inhibition, % at 35 µM;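 active = 50% or more with normal probe brightness, or confirmed in later tests; about a fifth of its hits are not listed in these tables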;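 also: calls also rest on retests at 20 µM and on dose response follow-up; controls were probe without protein and protein plus probe with vehicle; some compounds called inactive have numbers as strong as hits; many hits fall short of the cut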
Target sequence (P11940 whole entry, looked up): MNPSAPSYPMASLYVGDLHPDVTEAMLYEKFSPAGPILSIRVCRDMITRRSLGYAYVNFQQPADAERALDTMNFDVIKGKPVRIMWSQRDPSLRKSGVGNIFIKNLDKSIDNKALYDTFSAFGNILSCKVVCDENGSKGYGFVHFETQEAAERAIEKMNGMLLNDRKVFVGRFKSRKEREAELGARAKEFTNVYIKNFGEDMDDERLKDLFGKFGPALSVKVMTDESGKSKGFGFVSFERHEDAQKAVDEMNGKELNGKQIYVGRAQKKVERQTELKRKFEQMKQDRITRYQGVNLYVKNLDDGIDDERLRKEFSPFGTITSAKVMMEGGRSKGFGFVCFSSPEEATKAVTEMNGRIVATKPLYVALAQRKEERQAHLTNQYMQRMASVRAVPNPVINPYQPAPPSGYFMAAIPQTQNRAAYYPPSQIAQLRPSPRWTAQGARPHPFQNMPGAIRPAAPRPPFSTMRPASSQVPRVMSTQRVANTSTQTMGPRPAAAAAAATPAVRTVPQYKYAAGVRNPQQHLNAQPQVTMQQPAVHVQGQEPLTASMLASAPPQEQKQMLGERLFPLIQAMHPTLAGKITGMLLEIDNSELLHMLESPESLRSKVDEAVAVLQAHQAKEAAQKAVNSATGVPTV
Env fusion inh = inhibitors of HIV-1 Env-driven cell-cell fusion, primary screen, HeLa-JRFL effector, CEM21 target cells, luciferase; AID 651610, 2012; inhibition, % at 12.3 µM; 360,000 compounds, 1.1% hits;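 active = mean replicate inhibition score of at least 50 and every replicate individually at or above 50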;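 also: 0% = plate neutral controls and 100% = maraviroc near 300 nM; one replicate is shown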
eIF4H FP inh = human eIF4H binding inhibitors, primary screen, translation initiation inhibitor project, biochemical, uHTS, fluorescence polarization. Eukaryotic translation initiation factor 4H (Homo sapiens), Q15056. eIF4H fluorescence polarization binding assay. inhibition, % at 35 µM. 290,000 compounds, 0.94% hits. AID 2012, 2009;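 active = 50% or more with normal probe brightness, or confirmed in later tests; about a fifth of its hits are not listed in these tables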;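 also: calls also rest on retests at 20 µM and on dose response follow-up; 0% = protein and probe with vehicle and 100% = probe without protein; strong numbers were not always called active; many hits fall short of the cut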
Rce1 inh = yeast Rce1p protease inhibitors, primary screen, biochemical, fluorescence, cell-free homogeneous. 290,000 compounds, 0.27% hits. calls only. yeast membranes, quenched prenylated peptide cleavage fluorescence. CAAX prenyl protease 2 (Saccharomyces cerevisiae (strain ATCC 204508 / S288c)), Q03530;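 active = fall in fluorescence gain of 50% or more versus controls, with final raw signal at or below 3038400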;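 also: plate controls were neutral control wells for no effect and wells lacking membranes for full effect; tested at 10 µM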
Target sequence (Q03530 whole entry, looked up): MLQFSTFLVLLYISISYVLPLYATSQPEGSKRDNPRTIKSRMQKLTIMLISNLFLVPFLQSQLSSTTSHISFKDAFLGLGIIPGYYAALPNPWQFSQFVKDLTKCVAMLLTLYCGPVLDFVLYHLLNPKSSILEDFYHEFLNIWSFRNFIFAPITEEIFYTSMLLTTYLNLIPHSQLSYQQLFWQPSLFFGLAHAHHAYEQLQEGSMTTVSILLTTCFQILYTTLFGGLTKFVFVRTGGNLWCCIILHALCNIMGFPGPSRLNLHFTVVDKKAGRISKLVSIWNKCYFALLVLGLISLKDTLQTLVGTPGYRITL
MT1-MMP act inh RFP = second read-out of MT1-MMP act inh, no call of its own (marks repeat the call); RFP signal change, %; measured here: RFP expression control read;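 0 = vehicle wells; hits needed this value within 50% of zero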
Active calls of the source: *; i = inactive; · = not tested or not shown; + = active, no number; & = joins results of further samples.

Start of the listing, in advance, two compounds:
SMILES	Yeast UUG start	CSC inhib	MT1-MMP act inh	MT1-MMP act inh RFP	PABP polyA inh	Env fusion inh	eIF4H FP inh	Rce1 inh
COC(=O)C1=C(C(=O)OC)[C@@H]2Nc3ccccc3[C@@]23C[C@@H](C(=O)OC)N=C3N1	-7	-1	-3	0	-4	-2	-14	i
O=C(Cn1c(NCCCO)nc2ccccc21)c1cccs1	-2	-4	2	6	·	32	·	i

This part in full, previewed entries included:
SMILES	Yeast UUG start	CSC inhib	MT1-MMP act inh	MT1-MMP act inh RFP	PABP polyA inh	Env fusion inh	eIF4H FP inh	Rce1 inh
COC(=O)C1=C(C(=O)OC)[C@@H]2Nc3ccccc3[C@@]23C[C@@H](C(=O)OC)N=C3N1	-7	-1	-3	0	-4	-2	-14	i
O=C(Cn1c(NCCCO)nc2ccccc21)c1cccs1	-2	-4	2	6	·	32	·	i
CC1CCC2(CC1)NC(=O)N(NC(=O)c1cccs1)C2=O (centres undefined)	-2	-10	0	2	·	·	·	·
CCCCNc1nc(=S)n(-c2ccccc2)c(C)c1C(C)=O	-12	1	8	-3	-9	8	-5	i
COc1ccc(NC(=O)N(C)C[C@@H]2Oc3ccc(NC(=O)NC(C)C)cc3CC(=O)N([C@H](C)CO)C[C@@H]2C)cc1	-1&-14	·	6	6	·	-13	·	·
COC(=O)c1ccc(OC(=O)C2CSC3(C)CCC(=O)N23)cc1 (centres undefined)	·	-13	0	3	·	8	·	i
Cc1ccc(NC(=O)c2ccc(NC3=NC4CS(=O)(=O)CC4S3)cc2)cc1 (centres undefined)	-13	-7	4	7	-10	-38	-13	i
O=C(NC1(C(F)(F)F)NC(=O)N(Cc2ccco2)C1=O)c1cccs1 (centres undefined)	-19	2	1	3	50*	-66	92*	i
COc1ccc(CNC(=O)c2cc(-n3cnnc3)ccc2Cl)cc1	-1	6	-3	0	29	·	8	i
CCOC(=O)c1oc2ccc(CNC3CCCCC3)c(Cl)c2c1C	6	·	2	-4	-9	·	10	i
Cc1ccc(S(=O)(=O)N(C)C)cc1NC(=O)COC(=O)/C=C/c1ccc2c(c1)OCO2	-9	-15	2	-2	-2	6	-5	i
CC(C)(C)SCCNC(=O)c1ccc(NS(C)(=O)=O)cc1	-20	-7	2	1	-2	-103	1	i
COc1ccc(-c2cc(-c3n[nH]c(=S)n3-c3cccc4ccccc34)[nH]n2)cc1	-20	17	-6	-1	4	-17	6	i
COc1cc(SC)ccc1C(=O)NCc1ccccc1	-15	7	1	-1	4	-42	-7	i
Cc1ccc(NC(=O)C2CC(=O)N(CCc3ccccc3)C2)cc1Cl (centres undefined)	-7	-2	0	0	·	·	·	·
Cc1ccc(/C=C/C2=NN(Cc3ccccc3)C(=O)CC2)cc1	-11	2	1	2	-13	·	-4	i
Cc1ccccc1C(=O)Oc1ccc2ccc(O)cc2c1	-12	9	-2	-1	-11	-96	8	i
COC(=O)c1ccccc1NC(=O)CS(=O)(=O)Cc1nc(-c2ccc(C)cc2)oc1C	-18	-1	5	-1	-2	7	0	i
COc1ccccc1C(=O)NC(=O)COC(=O)c1cnccn1	-15	·	-3	5	·	-169	·	·
Cc1ccc(NC(=O)c2ccc3c(c2)C(=O)N(c2cc(C)ccc2C)C3=O)nc1	-15	-9	1	0	-11	-102	4	i
CC1(C)NC(=O)N(CC(=O)Nc2cc(S(=O)(=O)N3CCOCC3)ccc2N2CCOCC2)C1=O	·	6	·	·	2	·	-7	i
Cc1ccc(NC(=S)NC2CCSc3ccccc32)cc1C (centres undefined)	-17	1	1	-4	6	-4	0	i
CN1/C(=C\C=N\NC(=O)c2cccnc2)C(C)(C)c2ccccc21	·	-18	-5	-4	2	11	3	i
CNS(=O)(=O)c1cccc(C(=O)OCC(=O)Nc2ccc3ccccc3c2)c1	-11	-7	4	3	·	0	·	·
Cc1ccc(C)c(S(=O)(=O)NCCCn2ccnc2)c1	-14	-30	1	0	26	-7	2	i

Profiles, looked up by structure. Order of values: Yeast UUG start	CSC inhib	MT1-MMP act inh	MT1-MMP act inh RFP	PABP polyA inh	Env fusion inh	eIF4H FP inh	Rce1 inh
`Cc1ccc(C)c(S(=O)(=O)NCCCn2ccnc2)c1` is listed as -14	-30	1	0	26	-7	2	i
`Cc1ccc(NC(=S)NC2CCSc3ccccc32)cc1C` (centres undefined) is listed as -17	1	1	-4	6	-4	0	i
`Cc1ccccc1C(=O)Oc1ccc2ccc(O)cc2c1` is listed as -12	9	-2	-1	-11	-96	8	i
`O=C(Cn1c(NCCCO)nc2ccccc21)c1cccs1` is listed as -2	-4	2	6	·	32	·	i

Carrying on:
SMILES	Yeast UUG start	CSC inhib	MT1-MMP act inh	MT1-MMP act inh RFP	PABP polyA inh	Env fusion inh	eIF4H FP inh	Rce1 inh
CC(=O)c1cccc(NC(=O)Nc2cnn(Cc3ccc(Cl)cc3Cl)c2)c1	-8	-4	11	-2	-2	64*	3	i
CSc1nnc(-c2nnc(SC)n2-c2ccccc2)n1-c1ccccc1	-7	-8	-7	-11	-7	-17	-3	i
CN1CCN(C(=O)c2ccc(Oc3ccc([N+](=O)[O-])cc3)cc2)CC1	-8	-7	1	0	5	11	-4	i
Cc1cc(C)c(NC(=O)CSc2nc3ccccc3c(=O)n2CCCN2CCOCC2)c(C)c1	-16	-22	1	3	·	·	·	·
Cc1ccc(O)c(NC(=O)CN(C)S(=O)(=O)c2ccc(Cl)cc2)c1	-13	·	7	3	-7	17	23	i
Cc1ccccc1NC(=O)Cc1nnc(SCC(=O)NC2CCCCC2)n1C	-9	4	-2	-3	9	7	-3	i
CC12CCC(=O)N1C(C(=O)Nc1nc3ccccc3s1)CS2 (centres undefined)	-18	·	-6	0	·	-4	·	·
COc1ccccc1N1CCN(C(=O)c2cc(-c3ccc(C)cc3)on2)CC1	5	4	5	1	1	-17	-7	i
COc1ccccc1-c1cnc(C(O)c2cc(C)ccc2C)[nH]1 (centres undefined)	-15	·	-5	1	·	-26	·	·
O=c1[nH]c(N2CCOCC2)nc2ncn(Cc3ccccc3)c12	-27	-14	4	0	-4	-4	-12	i
CCOC(=O)c1[nH]c(C)c(C(=O)OCC(=O)NCc2ccc(Cl)cc2)c1C	-11	·	2	2	·	-1	·	·
CCCCn1c(-c2sccc2C)n[nH]c1=S	·	-10	0	0	1	-2	-8	+
O=C(N/N=C/c1ccc(O)c(O)c1O)/C(=C/c1ccc([N+](=O)[O-])cc1)NC(=O)c1ccccc1	-25	35	5	-1	59*	13	105*	i
CC(C)(C)NC(=O)COc1ccc(CNCCc2ccccc2)cc1	-6	2	-5	-3	3	-11	10	i
CSc1nsc(SCC(=O)Nc2ccc(O)c(C(=O)O)c2)n1	-8	·	-2	2	9	-9	-9	i
COc1cccc(CNC(=O)C2CCN(S(=O)(=O)c3c(C)nn(C)c3C)CC2)c1	-4	-9	-2	0	8	-4	2	i
CC(=O)Nc1ccc(S(=O)(=O)Nc2ccccc2C(=O)NCc2cccnc2)cc1	-11	-5	-6	-5	4	12	1	i
CC1CCN(C(=O)COc2ncnc3ccccc23)CC1	·	2	1	4	4	-6	-5	i
O=C(C1CCC(=O)N(C2CCCCCC2)C1)N1CCN(c2ccccc2Cl)CC1 (centres undefined)	18	-5	5	-8	1	21	-10	i
O=C(CC1CCCC1)OCn1nnc2ccccc2c1=O	-3	-10	-2	-2	32	-41	4	i
O=C(CC1C(=O)NCCN1Cc1ccccc1C(F)(F)F)NCCc1ccccn1 (centres undefined)	·	-15	-1	7	16	5	29	i
Cc1cc(NC(=O)CSc2nnc(C)c(=O)[nH]2)no1	-28	3	0	4	2	10	-7	i
CCO/C=C1\C(=O)N(c2ccccc2)C(=O)c2ccccc21	-8	-4	-3	0	4	·	2	·
O=C1C(=O)N(Cc2ccccc2)C(=O)N1CCOc1ccccc1	·	·	3	3	2	2	1	·
O=C(O)c1cc(N/N=C/c2ccc(-c3ccc(F)cc3)o2)ccc1Cl	11	-11	3	3	24	-50	5	i
Additional results:
SMILES	Yeast UUG start	CSC inhib	MT1-MMP act inh	MT1-MMP act inh RFP	PABP polyA inh	Env fusion inh	eIF4H FP inh	Rce1 inh
Cn1cc(S(=O)(=O)NCc2ccc(F)cc2)c(=O)n(C)c1=O	-10	-10	-1	3	22	-10	0	i
O=C(NCCc1ccccn1)c1ccc(OC2CCN(Cc3ccccn3)CC2)cc1	-18	-2	5	5	14	-5	7	i
Cc1c(OC(C)C(=O)NCCN2CCOCC2)ccc2c3c(c(=O)oc12)CCC3 (centres undefined)	-5	7	2	4	4	-13	4	i
COc1cc(NS(=O)(=O)c2ccc(Nc3nc(-c4ccccc4)cs3)cc2)nc(OC)n1	·	54	22	-3	-4	-41	-13	i
C=CCNC(=O)CCc1nnc(C2(c3ccc(Cl)cc3)CCC2)o1	·	-14	-2	-2	-2	-10	0	i
CCN(CC)c1ccc(C(=O)N/N=C(\C)c2ccc(O)cc2)cc1	·	61	4	5	-14	11	-33	i
C[C@@H](NC(=O)C(=O)c1c[nH]c2ccccc12)c1ccccc1	0	5	0	-1	·	·	·	i
Cc1ccc(-n2nc(C)c3c2C(Br)C(C)(C)CC3=O)nc1 (centres undefined)	7	·	-7	-4	·	-55	·	·
COc1ccc2nc3oc(C(=O)N4CCN(c5cccc(C(F)(F)F)c5)CC4)cc3cc2c1	18	-4	10	-2	-4	·	-7	i
CCc1ccc(OCC(=O)N/N=C/c2ccc(OS(=O)(=O)c3ccc(C)cc3)c(OC)c2)cc1	-3	52	2	1	-12	15	4	i
CCOC(=O)c1ccc2c(c1)n(CC)c(/C=C/Nc1ccccc1)[n+]2CC	-7	-5	7	-1	4	-36	-5	i
C=CCNc1nc(NCCN2CCOCC2)nc(OC)n1	-12	-9	5	0	1	·	-7	i
CCOc1ccc(NC(=O)CN2CCN(c3ccccc3C)CC2)cc1S(=O)(=O)N1CCCC1	10	·	1	-4	·	-3	·	·
O=C(c1nc2nc(-c3ccccc3)cc(C(F)(F)F)n2n1)N1CCOCC1	-14	-2	-2	0	-1	-19	6	i

A stretch taken from the entries so far, as a working copy:
SMILES	Yeast UUG start	CSC inhib	MT1-MMP act inh	MT1-MMP act inh RFP	PABP polyA inh	Env fusion inh	eIF4H FP inh	Rce1 inh
COC(=O)C1=C(C(=O)OC)[C@@H]2Nc3ccccc3[C@@]23C[C@@H](C(=O)OC)N=C3N1	-7	-1	-3	0	-4	-2	-14	i
O=C(Cn1c(NCCCO)nc2ccccc21)c1cccs1	-2	-4	2	6	·	32	·	i
CC1CCC2(CC1)NC(=O)N(NC(=O)c1cccs1)C2=O (centres undefined)	-2	-10	0	2	·	·	·	·
CCCCNc1nc(=S)n(-c2ccccc2)c(C)c1C(C)=O	-12	1	8	-3	-9	8	-5	i
COc1ccc(NC(=O)N(C)C[C@@H]2Oc3ccc(NC(=O)NC(C)C)cc3CC(=O)N([C@H](C)CO)C[C@@H]2C)cc1	-1&-14	·	6	6	·	-13	·	·
COC(=O)c1ccc(OC(=O)C2CSC3(C)CCC(=O)N23)cc1 (centres undefined)	·	-13	0	3	·	8	·	i
Cc1ccc(NC(=O)c2ccc(NC3=NC4CS(=O)(=O)CC4S3)cc2)cc1 (centres undefined)	-13	-7	4	7	-10	-38	-13	i

Not all compounds are listed; the hit share may differ from the screen's.
